Screens (PubChem BioAssay)
2A StopGo – High Throughput Screening for Foot and Mouth Disease Virus Antivirals; hit rate 1.2% among 410,000; human cells with a luciferase reporter of 2A StopGo recoding; control for the full effect not named in the record; Potency, µM (highest dose often 57.9 µM), for inactives: at the top dose signal change, negative = less light; AID 1159524, 2015; active = well fitted falling curve with a large enough effect; inconclusive = small, poorly fitted or top-dose-only effect; inactive = no such curve, though single readings can be large or run the other way; tested in HEK293T cells; note: % is set by controls: 0 for no effect and ±100 for the full control effect; nearly all actives have a fitted effect of over 45% in size; luciferase light after 4 h
Cruzain inh Det – qHTS Assay for Promiscuous and Specific Inhibitors of Cruzain (with detergent). hit rate 0.43% among 200,000. Cruzipain (Trypanosoma cruzi), P25779. purified cruzain, Z-FR-AMC fluorescence, 0.01% Triton. AID 1478, 2009. Potency, µM, for the others: max response, negative = inhibition, most hits filed as inhibitors;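 note: plate controls were neutral wells for no effect and buffer without enzyme for full effect; nearly all actives have a fitted effect of over 40% in size; top concentration of the series not given in the record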
Target sequence (P25779 123-467 limits assumed): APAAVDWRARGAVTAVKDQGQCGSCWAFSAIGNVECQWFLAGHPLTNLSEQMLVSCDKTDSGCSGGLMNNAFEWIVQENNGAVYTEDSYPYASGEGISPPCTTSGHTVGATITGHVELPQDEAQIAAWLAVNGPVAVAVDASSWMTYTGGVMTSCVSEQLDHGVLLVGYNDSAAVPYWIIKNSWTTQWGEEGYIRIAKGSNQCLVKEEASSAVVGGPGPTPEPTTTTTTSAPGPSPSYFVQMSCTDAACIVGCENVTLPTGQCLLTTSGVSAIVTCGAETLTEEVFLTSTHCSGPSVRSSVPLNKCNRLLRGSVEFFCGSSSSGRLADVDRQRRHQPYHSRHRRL
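Cysteine protease activity tested under reducing, mildly acidic conditions (100 mM sodium acetate pH 5.5, 5 mM DTT) plus 0.01% Triton X-100. Cruzain 1.5 nM; substrate Z-FR-AMC 2 uM; 15 min compound preincubation at room temperature.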
SARS PLpro yeast – qHTS of Yeast-based Assay for SARS-CoV PLP. S. cerevisiae expressing SARS-CoV PLpro, growth rescue; control for the full effect not named in the record. Potency, µM (doses to about 32.9 µM), without a hit: at the top dose activity, positive = growth rescue. hit rate 0.19% among 330,000. AID 485353, 2010; active means well fitted rising curve with a large enough effect; inconclusive means small, poorly fitted or top-dose-only effect; inactive means no such curve, though single readings can be large or run the other way; note: 0% is about no effect; nearly all actives have a fitted effect of over 55% in size; growth read by luminescence after 48 h
Cruzain inh noDet – qHTS Assay for Promiscuous and Specific Inhibitors of Cruzain (without detergent) | purified cruzain, Z-FR-AMC fluorescence, no detergent | Cruzipain (Trypanosoma cruzi), P25779 | Potency, µM, without a hit: max response, negative = inhibition, most hits filed as inhibitors | hit rate 2.3% among 200,000;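 note: plate controls were enzyme without inhibitor for no effect and buffer without enzyme for full effect; nearly all actives have a fitted effect of over 40% in size; top concentration of the series not given in the record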
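Purified cruzain at 1.5 nM, pre-incubated 15 min with compound at room temperature in 100 mM sodium acetate pH 5.5, 5 mM DTT, 0.00005% Triton X-100. Reaction started with 2 uM Z-FR-AMC; AMC fluorescence increase over 60 s gives rate.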
NS1 inh – qHTS Assay for Inhibitors of Influenza NS1 Protein Function. Potency, µM (titrated, usually from 46.1 µM), for the others: at the highest dose activity, positive = more growth. hit rate 0.4% among 270,000. S. cerevisiae slowed by influenza A NS1, growth recovery by OD600; active means well fitted rising curve with a large enough effect; inconclusive means small, poorly fitted or top-dose-only effect; inactive means no such curve, though single readings can be large or run the other way; note: nearly all actives have a fitted effect of over 50% in size
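A cell-based growth assay was used: compounds that relieve NS1-induced slow growth of budding yeast raise OD600. Assay medium was yeast nitrogen base with ammonium sulphate and -URA supplement, pH 6.0, with 2% galactose.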
Marburg entry inh – qHTS for inhibitors of binding or entry into cells for Marburg Virus. Marburg virus pseudotyped entry inhibition, cell reporter; control for the full effect not named in the record; about a third of the inactives were read at about 46 µM. Potency, µM (highest dose often 37.8 µM), for inactives: at the highest dose activity change, negative = inhibition, hits mostly inhibitors. hit rate 1.8% among 300,000; active = well fitted inhibition curve with a large enough effect; inconclusive = small, poorly fitted or top-dose-only effect, or effect the other way; inactive = flat fitted curve, though single readings scatter; tested in HEK293 cells; about a fifth of its hits are not listed in these tables; note: % is set by controls: 0 for no effect and ±100 for the full control effect; luciferase read-out
LASV entry inh – qHTS for Inhibitors of binding or entry into cells for Lassa Virus. Lassa virus pseudotype entry inhibition, cell reporter; control for the full effect not named in the record. Potency, µM (top dose mostly 37.9 µM), inactives show at the top dose activity change, negative = inhibition, actives largely listed as inhibitors. hit rate 1.2% among 300,000. AID 540256, 2011; active means well fitted inhibition curve with a large enough effect; inconclusive means small, poorly fitted or top-dose-only effect, or effect the other way; inactive means flat fitted curve, though single readings scatter; tested in HEK293 cells; note: % is set by controls: 0 for no effect and ±100 for the full control effect; nearly all actives have a fitted effect of over 50% in size; luciferase read-out
RE007 growth inh – qHTS Assay for Inhibitors of the HIV-1 protein Vpr; S. pombe RE007 Vpr strain, BacTiter-Glo ATP luminescence, 24 h; control for the full effect not named in the record; Potency, µM (titrated, usually from 92.2 µM), without a hit: at the highest dose activity change, negative = less growth; hit rate 0.21% among 360,000; AID 651644, 2012; active = well fitted falling curve with a large enough effect; inconclusive = small, poorly fitted or top-dose-only effect; inactive = no such curve, though single readings can be large or run the other way;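 note: % is set by controls: 0 for no effect and ±100 for the full control effect; nearly all actives have a fitted effect of over 50% in size; the assay follows cell death caused by Vpr and the record does not say whether a fall means rescue or toxicity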
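Fission yeast RE007 carrying one integrated HIV-1 vpr copy, seeded at OD 0.01 in PMG+AL medium with 23 nL pinned compound. Grown 24 h at 30 degrees; viability read by BacTiter-Glo luminescence after 5 min.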
The depositor's hits bear a star; ? = inconclusive; . = not tested or not shown; & = joins results of further samples; [ ] = dose if it differs, or a comment. Unless noted, calls come from the whole dose curve; as a rule, active = well fitted curve in the direction sought with a large enough effect; inconclusive = small, poorly fitted or top-dose-only effect, or another doubt; inactive = no such curve, though single readings can be large; an effect the other way counts as inactive or inconclusive. Potency is the fitted concentration of half-maximal effect. Hits appear at their usual frequency; 4.7% or so of the library scored in one or more.

Below each SMILES: 2A StopGo | Cruzain inh Det | SARS PLpro yeast | Cruzain inh noDet | NS1 inh | Marburg entry inh | LASV entry inh | RE007 growth inh
1) CCOc1ccccc1NC(=O)Cn1c(=O)n(Cc2ccc(C(=O)NCCCOC)cc2)c(=O)c2ccccc21
    -28% | -3.1% | . | -4% | . | -15%[46.1 µM] | -8%[46.1 µM] | .
2) Cc1[nH]n(-c2cccc3ccccc23)c(=O)c1/C=N/c1sc2c(c1C#N)CCC2
    -23% | -2.3% | 7% | -15% | 2.2µM* | -16% | -3% | -12%
3) COc1ccc(N=Cc2nc(-c3ccccc3)oc2OC(=O)c2ccccc2)cc1
    43%[activator] | 10µM* | -14% | 16µM* | -16% | -43% | ? | -17%
4) Cc1nc(C)c(C(=O)OCC(=O)N(C)c2ccccc2)s1
    1% | . | -1% | . | . | 3% | ? | -19%
5) COc1ccc(-c2cc(C(=O)NCC3CCCO3)on2)cc1OC (stereo not given)
    5% | . | -2% | . | -13% | . | . | -20%
6) CC(C)CN(C(=O)CN1C(=O)C2CCCCC2C1=O)c1c(N)n(Cc2ccccc2)c(=O)[nH]c1=O (stereo not given)
    -13% | . | 15% | . | 10% | 2% | -5% | 11%
7) Cn1c(=O)c2c(SCc3ccccc3)nc(-c3ccco3)nc2n(C)c1=O
    . | -0.8% | 5% | 2% | 1% | . | . | .
8) O=S(=O)(Nc1ccc(-c2ccc(N3CCCC3)nn2)cc1)c1ccc(C(F)(F)F)cc1
    -7% | -7.3% | . | 0% | . | . | -29%[46.1 µM] | .
9) CCC1CCCCN1C(=O)Cn1c(=O)n(-c2ccccc2C(F)(F)F)c(=O)c2c(C)c(C(=O)N(C)C)sc21 (stereo not given)
    -13% | 2.1% | . | ? | . | . | -16%[46.1 µM] | .
10) COc1ccc2cnnc(SCC(=O)Nc3ccc(C(C)=O)cc3)c2c1OC
    -22% | -5.7% | 14% | -2% | 4% | 15% | 22% | -22%
11) CC(=O)Nc1cccc(NS(=O)(=O)c2cc3c4c(c2)CCN4C(=O)CC3)c1
    31%[activator] | . | -5% | . | . | -10% | -2% | 7%
12) CCCc1cc(=O)oc2cc(OCC(=O)N3C[C@H]4C[C@@H](C3)c3cccc(=O)n3C4)c(Cl)cc12
    5% | . | 7% | . | 16% | . | . | -11%
13) COc1ccc(N2C(=O)CC(N3CCC(n4c(=O)[nH]c5ccccc54)CC3)C2=O)cc1 (stereo not given)
    0% | 4.6% | -32% | -5% | -18% | 17% | 4% | 28µM*
14) O=C(NNC(=S)NC(=O)C12CC3CC(CC(C3)C1)C2)c1ccncc1
    . | 3.6% | -35% | -2% | -62% | -54% | ? | ?
15) CCCCN(CCCC)CCCNC(=O)CN1C(=O)COc2ccc(S(=O)(=O)N3CCC(C)CC3)cc21
    -17% | . | 8% | . | 10% | . | . | 0%
16) Nc1nnc(CSCc2cccc(Br)c2)s1
    -17% | . | -1% | . | 5% | ? | 17%[46.1 µM] | 13%
17) COC(=O)c1cc(OC)c(OC)cc1NC(=O)C(C)Sc1ccc(C)cc1 (stereo not given)
    . | -2.1% | -10% | ? | 6% | 3% | -7% | 14%
18) CC(C)(C)NC(=O)c1cc([N+](=O)[O-])ccc1N1CCCCC1
    0% | -5.2% | -6% | -9% | 1% | -1% | -14% | -13%
19) O=C(COc1ccccc1C(=O)Nc1ccccc1)NCCc1ccccc1
    -12% | . | -1% | . | . | -2%[46.1 µM] | 0% | -5%
20) COc1ccc(OC)c(N2C(=O)CC(C(C)c3ccccc3)C2=O)c1 (stereo not given)
    -18% | -0.7% | 0% | -4% | -2% | 12% | ? | 5%
21) CN(Cc1ccco1)c1ncnc2ccc(-c3ccoc3)cc12
    -23%&-16% | -5.1% | 7%&3% | -5% | . | . | . | .
22) CCN(CC)C(=O)CSc1ncnc2c1nnn2-c1ccc(OC)cc1
    -20% | -2.0% | 9% | 11% | 7% | 15% | -4% | 9%
23) Cc1ccccc1N(CC(=O)NCC1CCCO1)C(=O)C1(C)CC(=O)N=C2C=CC=CN21 (stereo not given)
    -10% | -4.3% | -3% | -3% | 3% | 9% | -10% | -2%
24) COc1ccc(OC)c(S(=O)(=O)N(C)CC(=O)N2CCCCC2)c1
    -3% | . | 4% | . | -8% | . | . | -7%
25) CCCCOc1ccc(/C=N/NC(=O)C2CCCNC2=O)cc1 (stereo not given)
    0% | . | 0% | . | -8% | 0% | -12% | 5%
26) CCOC(=O)c1ccc(NC(=O)C(C)N2C(=O)c3ccccc3C2=O)cc1 (stereo not given)
    . | 0.3% | -1% | 8% | -34% | -2% | -17% | 6%
27) Cc1cc(OCC(=O)NC2CC(C)(C)NC(C)(C)C2)c2c(C)c(C)c(=O)oc2c1
    2% | . | 2% | . | 2% | . | . | 2%
28) CCOC(=O)CSc1nc2ccccc2n1CC(=O)N(C(C)C)C(C)C
    15% | 1.1% | -6% | -8% | 2% | ? | -3% | 8%
29) CN1CCN(CCOCCOc2c(Cl)cc(Cl)cc2Cl)CC1
    -9% | . | . | . | . | ? | ? | -15%
30) CCCCn1c(SCC(=O)N2CCCCC2C)nc2cc(S(N)(=O)=O)ccc21 (stereo not given)
    0% | 1.4% | -5% | -7% | -4% | 3% | -8% | 0%

Gathered by group: those above containing two or more sulfur atoms (2)
Below each SMILES: 2A StopGo | Cruzain inh Det | SARS PLpro yeast | Cruzain inh noDet | NS1 inh | Marburg entry inh | LASV entry inh | RE007 growth inh
16) Nc1nnc(CSCc2cccc(Br)c2)s1
    -17% | . | -1% | . | 5% | ? | 17%[46.1 µM] | 13%
30) CCCCn1c(SCC(=O)N2CCCCC2C)nc2cc(S(N)(=O)=O)ccc21 (stereo not given)
    0% | 1.4% | -5% | -7% | -4% | 3% | -8% | 0%

The main list resumes; the 2 compounds before the break are reprinted first.
Below each SMILES: 2A StopGo | Cruzain inh Det | SARS PLpro yeast | Cruzain inh noDet | NS1 inh | Marburg entry inh | LASV entry inh | RE007 growth inh
29) CN1CCN(CCOCCOc2c(Cl)cc(Cl)cc2Cl)CC1
    -9% | . | . | . | . | ? | ? | -15%
30) CCCCn1c(SCC(=O)N2CCCCC2C)nc2cc(S(N)(=O)=O)ccc21 (stereo not given)
    0% | 1.4% | -5% | -7% | -4% | 3% | -8% | 0%
31) CSc1ccccc1NC(=O)c1cnc2scc(C)n2c1=O
    48%[activator] | -3.9% | -14% | -13% | -60% | . | . | -8%
32) CC(C)(C)C(=O)N1CCN(c2c(Cl)cccc2[N+](=O)[O-])CC1
    -2% | 4.0% | 0% | -11% | -18% | -4% | -9% | -10%
33) COc1ccc(CNC(=O)CSc2nc(-c3ccccc3)cc(-c3cccs3)c2C#N)cc1
    -13% | 3.6% | 7% | 10µM* | -1% | ? | -16% | -1%
34) O=C(CSc1nc2ccccc2nc1Cc1ccccc1)N1CCCCC1
    2% | -4.3% | . | 0% | . | . | -10%[46.1 µM] | .
35) O=C(NCc1ccccc1)c1cc(-c2ccco2)on1
    76%[activator] | -7.7% | -3% | ? | -5% | 9% | -12% | 1%
36) COc1ccc2sc(N(CCN(C)C)C(=O)c3ccc4ccccc4c3)nc2c1
    -29% | . | 5% | . | -15% | . | . | -10%
37) Cc1ccc(NC(=O)COC(=O)Cn2cnc3c2c(=O)n(C)c(=O)n3C)cc1Cl
    -15% | . | -3% | . | -6% | -4%[46.1 µM] | ? | -9%
38) Cc1ccc(N2CCN(C(=O)c3ccc4c(Cl)c5c(nc4c3)CCCC5)CC2)c(C)c1
    -8% | 3.6% | . | 4% | . | 7%[46.1 µM] | 0%[46.1 µM] | .
39) O=c1cc(-c2cccs2)oc2ccc(Cl)cc12
    67%[activator] | -2.6% | -13% | 0% | -22% | 12% | ? | -15%
40) CCOc1ccc(N(CC(=O)NC2CCCC2)C(=O)CCC(=O)Nc2ccccn2)cc1
    -6% | 2.7% | 3% | 14% | -2% | 0%[46.1 µM] | 4% | 15%
41) COc1ccc(CNC(=O)NC(C)(C)c2cccc(C(C)(C)NC(=O)NCc3ccc(OC)cc3)c2)cc1
    6% | -2.6% | 1% | -6% | -3% | -1% | 4% | -26%
42) COc1ccc(CN2CCNC(=O)C2CC(=O)NCc2cccc(C)n2)c(OC)c1 (stereo not given)
    -7% | . | 3% | . | 5% | 0%[46.1 µM] | 8% | -7%
43) O=C(CC(NC(=O)C(F)(F)F)c1ccccc1)Nc1nnc(CCc2ccccc2)s1 (stereo not given)
    -17% | -2.6% | 1% | ? | -2% | ? | -7% | -13%
44) Cc1ccc(CN2CCC(n3nccc3NC(=O)c3ccc4c(c3)OCO4)CC2)o1
    -12% | . | -1% | . | -3% | 4% | 1% | -9%
45) O=C(Nc1ccc(N2CCCCC2)cc1)c1cccnc1Cl
    60%[activator] | 1.1% | 2% | -6% | 0% | 23% | ? | -19%
46) Cc1noc(C)c1S(=O)(=O)N1CCCC(C(=O)N2CCN(C3CCCCC3)CC2)C1 (stereo not given)
    -19% | -1.0% | -2% | -1% | -2% | 0% | . | -4%
47) Cc1cc(F)c(F)cc1C(=O)N1CCCC1
    -16% | . | 0% | . | 5% | 4% | 7% | 10%
48) FC(F)(F)c1cccc(Cc2noc(CN3CCCC(CN4CCCC4)C3)n2)c1 (stereo not given)
    -19% | . | 0% | . | 1% | ? | -20%[46.1 µM] | -5%
49) Cc1ccccc1OCC(O)CN(CCO)Cc1ccccc1 (stereo not given)
    -2% | . | 1% | . | . | 0%[46.1 µM] | 0% | -5%
50) Cc1csc2nc(COC(=O)COc3ccccc3F)cc(=O)n12
    5% | -2.9% | . | -13% | . | . | -2%[46.1 µM] | .
